NPYLR7 agonist – mosquito NPYLR7 agonism | activation, % at 10 µM | 270,000 tested, 0.15% active | HEK293T NPYLR7/Galpha15, GCaMP6s calcium fluorescence; in the data active = activation above about 40%;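 also: 0% = vehicle and 100% = reference agonist at the receptor; some compounds past the cut are filed as inactive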
NPYLR7 agonist max-min – recorded beside NPYLR7 agonist, whose call it bears; activation, %; measured here: Max-Min RFU normalised activation; some inactives read as strong as hits;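 span of the calcium signal over five minutes; 0% = vehicle and 100% = native peptide agonist; compound fluorescence can raise it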
Active calls of the source: *. A portion of the library, so the mix of outcomes need not match the whole.

SMILES | NPYLR7 agonist | NPYLR7 agonist max-min
Cc1ccsc1CN(C)C(=O)C1CCC(=O)N(CCCN2CCCC2=O)C1 (stereo not drawn) | 0 | -1
O=C(c1cnccn1)N1CCN(Cc2cccc(-c3noc(-c4ccccc4)n3)c2)CC1 | 5 | 11
Nc1c(C(=O)NC2CCCC2)c2nc3ccccc3nc2n1/N=C\c1ccc(O)c(O)c1 | 2 | -6
Cc1cc(NCCN(C)C)n2nc(C(F)(F)F)c(-c3ccccc3)c2n1 | 4 | 6
CC(C)C(=O)C1=C(O)C(=O)N(c2cccc(C(=O)O)c2)C1c1cccc(Cl)c1 (stereo not drawn) | 7 | 5
COc1ccc2ccccc2c1/C=C1/SC(=Nc2ccccc2Cl)NC1=O | -9 | -10
Clc1ccc(Nc2nc(C3CC3)cs2)cc1 | 0 | -5
Cc1cc(C)cc(COc2coc(CN3CCN(C(=O)CO[C@@H]4C[C@H](C)CC[C@H]4C(C)C)CC3)cc2=O)c1 | -1 | -5
Cc1ncoc1C(=O)N1CCCC(Nc2ccc(C(C)C)cc2)C1 (stereo not drawn) | -5 | -5
COc1ccc(C)c2sc(N(CCN(C)C)C(=O)c3ccc([N+](=O)[O-])cc3)nc12 | -2 | -8
O=C(Nc1ccc(-c2ccn[nH]2)cc1)C1CCCN(Cc2cccnc2)C1 (stereo not drawn) | -6 | -5
CC(C)CC(NC(=O)c1ccccc1)C(=O)NC(c1ccc(S(C)(=O)=O)cc1)c1cccc(N(C)C)c1 (stereo not drawn) | 2 | -4
Nc1cc(C(F)(F)F)ccc1O | -8 | -8
CC(C)c1cc(C2CCN(C(=O)Cc3noc4ccccc34)CC2)[nH]n1 | 0 | 7
CC(C)(O)C#Cc1ccc(C(=O)N2CCn3cncc3C2)cc1 | 25 | 10
COc1ccc(CCN(Cc2ccc(C)o2)C(=O)CN(CCN2CCOCC2)C(=O)CCc2ccccc2)cc1OC | 0 | 3
Cc1ccc(-n2nnnc2-c2c[nH]c3ccccc3c2=O)cc1 | 7 | 10
COCCOCC(=O)N1CCC(n2c(-c3ccccc3)nc3ccc(F)cc32)CC1 | 30 | 18
COC(=O)C1Cc2nc[nH]c2CN1Cc1ccc(Sc2ncccn2)o1 (stereo not drawn) | 5 | 1
CCOC(=O)c1sc(=NC(=O)c2ccc(F)cc2)n(C)c1C | -2 | -1
CON=C(CCC(=O)O)c1cccs1 | -14 | -20
COCCCN(CC(=O)N1CCc2sccc2C1c1ccc(C)cc1)C(=O)c1ccc(C)c([N+](=O)[O-])c1 (stereo not drawn) | 4 | 14
O=C(O)Cc1cc(Cl)cc(Cl)c1Sc1ccccc1 | 1 | 2
CC1CCCN(S(=O)(=O)c2ccc3c(c2)nc(SCC#N)n3C2CCCC2)C1 (stereo not drawn) | 0 | -5
CSc1ncc(CN2CCCN(c3ccccc3C)CC2)cn1 | 2 | 3
N=C1/C(=C/c2ccc(OC(=O)c3cccs3)cc2)C(=O)N=C2SC(C(F)(F)F)=NN12 | -2 | -4
CCOc1cc(C)c(C)cc1S(=O)(=O)NCc1ccco1 | -4 | -7
Cc1nc(NCCNS(=O)(=O)c2ccc(F)cc2)cc(N2CCCC2)n1 | 4 | 0
CCCc1c(C)nn(-c2ccc(C(=O)Nc3ccc(OC)c(Cl)c3)cc2)c1C | -4 | -10
CCCCN(C(C)=O)c1c(CC)nc2ccc(C(=O)NCCCN3CCCC3=O)cn12 | 3 | 6
Nc1nc2c(=O)[nH]nc(-c3ccccc3)c2s1 | -4 | -4
O=[N+]([O-])c1ccc(NN=C2CCSC2)c(S(=O)(=O)Nc2ccc(Cl)cc2)c1 | 11 | 9
O=C(COc1ccccc1)N1CCC(c2nc(-c3ccc(F)c(F)c3)no2)CC1 | 6 | 7
C=CCn1c(O)c(N=NC(=O)COc2ccc(Cl)cc2)c2ccccc21 | 4 | 10
O=C(Nc1ccccc1)c1cc(S(=O)(=O)NCc2ccccc2)ccc1Br | 1 | -2
CCC(=O)Nc1cccc(C(=O)NCc2ccccc2-n2ccnc2)c1 | 2 | -1
Cc1cccc(N2CCC(N=Cc3ccccc3O)=N2)c1 | -3 | -3
O=c1c2ccccc2c(=O)c2c1c(O)cc1sc3ccccc3[nH]c12 | -6 | -8
COc1ccc(NC(=O)N2CCSC2c2ccc(OC)c(OCc3ccccc3)c2)c(OC)c1 (stereo not drawn) | 10 | 16
Cc1cc(CC(C)NC(=O)c2cnc(-c3cccnc3)nc2)n[nH]1 (stereo not drawn) | 13 | -3
COc1cccc(CN2C(=O)c3cnn(-c4cccc(OC)c4)c3C2C)c1 (stereo not drawn) | 28 | 16
O=c1c2c3c(sc2ncn1CC(O)c1ccccc1Cl)CNCC3 (stereo not drawn) | 1 | -13
COc1cc(-c2ccn[nH]2)ccc1NC(C)=O | 4 | 1
CCN(CC)CCCC(C)NC(=O)c1cc(-c2ccccc2)nn1-c1ccc(OC)cc1 (stereo not drawn) | 16 | 19
O=c1sc(Nc2ccccc2)nc2ccccc12 | 6 | 6
CCOC(=O)Cc1csc(N=Cc2nc(-c3cccc(OC)c3)oc2O)n1 | 10 | 11
C/C(=C\c1ccccc1)CN1CCC2(CC1)CC2C(=O)NCc1ccccc1C(F)(F)F (stereo not drawn) | 4 | 3
CCOC(=O)N1CCN(C(c2cccs2)C2Sc3ncnn3C2=O)CC1 (stereo not drawn) | 3 | 0
CN(CC1CCCCO1)C(=O)c1ccc2nc(C3CCCCC3)oc2c1 (stereo not drawn) | 14 | -1
O=C(Nc1ccc(F)cc1)c1cc(S(=O)(=O)N2CCOCC2)ccc1Cl | -10 | -11

Following part:
SMILES | NPYLR7 agonist | NPYLR7 agonist max-min
Cc1cc(C)c(CN2CCCN(c3ccc(N)cc3)C2=O)c(C)c1 | 14 | 5
CN(C)c1ccc(/C=C/C(=O)Nc2ccc(-n3cccn3)cc2)cc1 | 7 | 4
CC1Cc2c(NC(=O)C3COc4ccccc4O3)nn(C)c2NC1=O (stereo not drawn) | -17 | -20
OCCN1CCN(c2cc(-c3ccc(CO)cc3)nc3ccnn23)CC1 | -3 | -9
O=C(C1CCN(S(=O)(=O)c2ccccc2F)CC1)N(Cc1ccccc1F)C1CC1 | -3 | -6
COc1ccc(C2c3cccn3CCCN2Cc2cc(F)ccc2F)cc1 (stereo not drawn) | 31 | 41
Cc1ccc(S(=O)(=O)Nc2ccc(Nc3nccn4c(-c5ccc6ccccc6c5)cnc34)cc2)cc1 | -3 | -9
CC1(C(=O)Nc2ccccc2)CCN1C(=O)CC(c1ccccc1)c1ccccc1 (stereo not drawn) | 11 | 7
O=c1c(S(=O)(=O)c2ccc(F)cc2)c[nH]c2ccc(F)cc12 | 5 | 2
COCCn1c(C(C)NC(=O)c2ccc(Br)cc2)nc2ccccc2c1=O (stereo not drawn) | 0 | 5
CC(C)Cc1ncc2c(n1)CN(C(=O)C1=CCCC1)C2 | 4 | 1
Cc1c(Cl)cccc1N1CN(C(=O)CNC2CCCCC2)CC1=O | 2 | -2
COc1ccc(-n2c(SCc3ccccc3C#N)nnc2C2CCCCC2)cc1 | 34 | 35
Cc1ccc(-n2nnnc2SC(C)C(=O)NCc2ccco2)c(C)c1 (stereo not drawn) | 14 | 3
OCCSc1nnc(-c2c[nH]c3ccccc23)n1C1CC1 | 7 | 4
CCN(CC)CCNc1nc2c(OC)ccc(Cl)c2s1 | -2 | -6
C#CCN(CC#CC)C(=O)C(C)n1nc(C)cc1C (stereo not drawn) | -1 | -9
CCc1cccc2c(C(CC(=O)N(CCC#N)Cc3cccnc3)c3ccccc3OC)c[nH]c12 (stereo not drawn) | 2 | 9
Cc1cc(S(=O)(=O)NCCc2sc3nc(-c4ccc(Cl)cc4)nn3c2C)ccc1F | 0 | 0
Cc1ccc(NC(=O)Cn2c(O)c(N=Nc3ccccc3C(=O)O)c3ccccc32)cc1 | 2 | -4
COc1ccc(NC(=O)N2CC(C)(C)SC23C(=O)N(Cc2ccccc2C)c2ccccc23)cc1 (stereo not drawn) | 0 | 5
CCNCC(=O)Nc1nc2c(F)c(F)c(F)cc2s1 | 7 | 4
CCc1nc2n(n1)C(=O)C(C(c1cccs1)N1CCN(C)CC1)S2 (stereo not drawn) | -5 | -10
Cc1cc2nc(-c3cccs3)cc(C(=O)NCc3ccco3)c2cc1C | 1 | 15
CCN1C(=S)NC(c2ccc(NS(=O)(=O)c3ccccc3)cc2)C(C(=O)OCC(C)C)=C1C (stereo not drawn) | 6 | 16
Cc1ccc(-c2cn3cccnc3n2)cc1NC(=O)CC(C)C | 8 | 11
CCOCCNC(=O)CSc1nc2cc(C(=O)OCC)ccc2n1Cc1ccccn1 | 5 | 3
O=C(NNC(=O)C1COc2ccccc2O1)c1ccc2ccccc2n1 (stereo not drawn) | -1 | 0
CSC1CCCC(NC(=O)c2ccc(NC(C)=O)cc2)C1 (stereo not drawn) | 6 | 3
Cc1ccc(C)c(COc2cccn3c(CCN4C(=O)[C@H]5CC=CC[C@H]5C4=O)cnc23)c1 | -13 | -17
CCONC(=O)Cc1csc(NC(=O)CN(C(=O)c2ccc(Cl)cc2)C(C)C)n1 | -6 | 2
Cc1cc(C)c(C)c(S(=O)(=O)N2CCN(C(=O)c3ccc(-n4cncn4)cc3)CC2)c1C | 6 | 6
COc1ccc(CN(Cc2ccco2)CC(O)COc2ccccc2C)cc1OC (stereo not drawn) | -6 | -5
CC(C)C1=NOC(c2nc(C(C)c3ccccc3)no2)C1 (stereo not drawn) | 1 | 0
COc1ccc(-c2cnc(N)cn2)cc1Cl | 5 | 3
FC(F)(F)c1cnc(Sc2n[nH]c(C3CC3)n2)c(Cl)c1 | 9 | 4
CC(NC(=O)c1cccc(Cn2cccn2)c1)c1nc2c(s1)CCCC2 (stereo not drawn) | -4 | -9
Cc1ccc(NC(=O)Cn2c(=O)n(Cc3ccc4c(c3)OCO4)c(=O)c3oc4ccccc4c32)cc1 | -7 | -6
N#Cc1c(NC(=O)c2cnn3c(C(F)(F)F)cc(-c4ccco4)nc23)sc2c1CCCC2 | 9 | 3
Cc1ccc(C)c(S(=O)(=O)Nc2cc(Sc3ncn[nH]3)c(O)c3ccccc23)c1 | -8 | -9
N#Cc1ccc(OCC(=O)Nc2nc(-c3ccc(I)cc3)cs2)cc1 | -2 | -3
Cc1cc(F)ccc1NC(=O)Cc1ccc(Br)cc1 | -3 | -4
COCCCN(CC(=O)N(CCc1c[nH]c2ccccc12)Cc1ccc(F)cc1)S(=O)(=O)c1ccc(Cl)cc1 | 1 | 13
C#CCN(C)CC[C@@H]1CC[C@H](O)[C@@H](C(=O)Nc2ccccc2)O1 | -3 | -11
COC(=O)CCC(=O)NCC1Cc2cccc(F)c2O1 (stereo not drawn) | 18 | 11
CN(C)CCCNC(=O)Cc1cc(-c2cc3ccccc3o2)on1 | 8 | 11
Cc1nnc(NC(=O)CSc2nc(-c3cccc(F)c3)nc3c2c(=O)n(C)c(=O)n3C)s1 | -2 | -3
Cc1ccc(CN2CC(C(=O)NCC3(N4CCOCC4)CCCCC3)CC2=O)cc1 (stereo not drawn) | 6 | 5
CCN=C1NN=C(c2ccc(OC)c(F)c2)CS1 | 10 | 7
CCOC(=O)C1(Cc2cccc(Cl)c2)CCCN(Cc2cnc[nH]2)C1 (stereo not drawn) | 6 | 2

The results go on.
SMILES | NPYLR7 agonist | NPYLR7 agonist max-min
C[C@H](NC(=O)OCc1ccccc1)C(=O)NCCCN(C)c1ccccc1 | 2 | 4
COc1cc(Cl)ccc1-n1c(CCC(=O)NCC2CCCO2)cc2c1-c1ccccc1CC2 (stereo not drawn) | 2 | -1
CCCN1CCC(N2CCC3(CC2)C(=O)N(CCCc2ccncc2)C(=O)N3CCC(C)C)CC1 | 7 | -4
Cc1ccccc1-c1nc(CN2CCSCC2)c(C)o1 | -13 | -19
O=C(c1ccc(-c2ccccc2)c(F)c1)C1CCCN(C(=O)CCn2cnnn2)C1 (stereo not drawn) | 2 | -4
CCCC1CN(Cc2ccon2)CCN1Cc1ccon1 (stereo not drawn) | 6 | 5
COc1ccc(S(=O)(=O)N(Cc2cccnc2)Cc2nccn2Cc2ccc(C(F)(F)F)cc2)cc1 | 14 | 20
CCOC(=O)c1ccccc1N1C(=O)/C(=C\c2cccc(OCCO)c2)N(C)C1=S | 2 | 11
CCN(Cc1cccc(C)c1)Cc1nc2ccsc2c(=O)[nH]1 | -18 | -23
COC(=O)C1CCN(C(=O)CCc2cc3c(n2-c2ccc(C)cc2F)-c2ccccc2OC3)CC1 | 1 | -1

Structures above that contain an aryl thioether with sulfur outside any ring, in the order listed:
SMILES | NPYLR7 agonist | NPYLR7 agonist max-min
COC(=O)C1Cc2nc[nH]c2CN1Cc1ccc(Sc2ncccn2)o1 (stereo not drawn) | 5 | 1
O=C(O)Cc1cc(Cl)cc(Cl)c1Sc1ccccc1 | 1 | 2
CC1CCCN(S(=O)(=O)c2ccc3c(c2)nc(SCC#N)n3C2CCCC2)C1 (stereo not drawn) | 0 | -5
CSc1ncc(CN2CCCN(c3ccccc3C)CC2)cn1 | 2 | 3
COc1ccc(-n2c(SCc3ccccc3C#N)nnc2C2CCCCC2)cc1 | 34 | 35
Cc1ccc(-n2nnnc2SC(C)C(=O)NCc2ccco2)c(C)c1 (stereo not drawn) | 14 | 3
OCCSc1nnc(-c2c[nH]c3ccccc23)n1C1CC1 | 7 | 4
CCOCCNC(=O)CSc1nc2cc(C(=O)OCC)ccc2n1Cc1ccccn1 | 5 | 3
FC(F)(F)c1cnc(Sc2n[nH]c(C3CC3)n2)c(Cl)c1 | 9 | 4
Cc1ccc(C)c(S(=O)(=O)Nc2cc(Sc3ncn[nH]3)c(O)c3ccccc23)c1 | -8 | -9
Cc1nnc(NC(=O)CSc2nc(-c3cccc(F)c3)nc3c2c(=O)n(C)c(=O)n3C)s1 | -2 | -3

Bioassay records deposited in PubChem by Fisher Drug Discovery Resource Center.
